eIF4H FP inh – inhibitors of RNA binding by human eIF4H | inhibition, % at 35 µM | AID 2012 | Q15056 | actives 0.94% (n = 290,000) | eIF4H fluorescence polarization binding assay;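 active = 50% or more with normal probe brightness, or confirmed in later tests; inconclusive = above 50% with abnormal brightness, or retests that disagree; inactive = below 50% or failed in later tests; about a fifth of its hits are not listed in these tables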;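 note: calls also rest on retests at 20 µM and on dose response follow-up; 0% = protein and probe with vehicle and 100% = probe without protein; strong numbers were not always called active; many hits fall short of the cut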
PABP FP inh – blocks human PABP binding to poly(A) RNA; P11940; fluorescence polarization; inhibition, % at 35 µM; actives 1% (n = 290,000);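 active = 50% or more with normal probe brightness, or confirmed in later tests; inconclusive = above 50% with abnormal brightness, or retests that disagree; inactive = below 50% or failed in later tests; about a fifth of its hits are not listed in these tables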;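 note: calls also rest on retests at 20 µM and on dose response follow-up; controls were probe without protein and protein plus probe with vehicle; some compounds called inactive have numbers as strong as hits; many hits fall short of the cut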
MT1-MMP act inh – inhibitors of human MT1-MMP activation. actives 0.061% (n = 360,000). HT1080 RFP-PRO-GFP cells, GFP/RFP ratio fluorescence, overnight; percent of plate control window, DMSO zero. AID 651647. GFP/RFP ratio change, % at 20 µM. P50281;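 active = GFP/RFP ratio change of at least 30% with cell ATP level not reduced by more than half and red fluorescence within 50% of control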; note: strong numbers were not always called active
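Assay system: HT1080 RFP-PRO-GFP cells | Dosing: 20 µM single dose, 1% DMSO | Incubation: Cells overnight before dosing, compound overnight, 37 °C, 5% CO2 | Evaluation: GFP/RFP fluorescence ratio | Control set: DMSO-only wells and HT1080 RFP-L50D-GFP cell wells as references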
Rce1 inh – inhibitors of yeast Ras-converting enzyme; Q03530; yeast membranes, quenched prenylated peptide cleavage fluorescence; calls only; actives 0.27% (n = 290,000); AID 2563;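 active = fall in fluorescence gain of 50% or more versus controls, with final raw signal at or below 3038400; inconclusive = same 50% fall but final raw signal above 3038400; inactive = fall in fluorescence gain under 50%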;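 note: plate controls were neutral control wells for no effect and wells lacking membranes for full effect; tested at 10 µM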
Target sequence (Q03530 whole entry, looked up): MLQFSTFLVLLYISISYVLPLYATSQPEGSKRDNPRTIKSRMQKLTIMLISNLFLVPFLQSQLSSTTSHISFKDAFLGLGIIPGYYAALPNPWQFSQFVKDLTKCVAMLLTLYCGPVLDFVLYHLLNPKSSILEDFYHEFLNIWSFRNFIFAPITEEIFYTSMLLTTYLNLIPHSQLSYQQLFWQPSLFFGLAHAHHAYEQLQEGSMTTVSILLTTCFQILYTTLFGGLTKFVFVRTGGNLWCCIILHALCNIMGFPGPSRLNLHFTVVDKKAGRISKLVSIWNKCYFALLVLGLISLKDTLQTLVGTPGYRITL
Yeast UUG start – alters start codon recognition fidelity in yeast; S. cerevisiae UUG-firefly luciferase reporter, luminescence/redox ratio; activity score, % at 18.7 µM; actives 0.13% (n = 350,000); AID 602363;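 active = replicate mean at a twofold rise or more, about +100% in these data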;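 note: firefly luciferase made from a UUG start codon reports start codon fidelity; reporter light over untreated wells divided by growth signal over untreated wells; some hits fall short of that in this replicate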
CSC inhib – cancer stem cell inhibition | actives 1.1% (n = 300,000) | AID 2717 | inhibition, % at 7.5 µM | cancer stem cell-like cells viability, luminescence;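 active = mean at 75% or more and at least half the replicates too; inconclusive = mean and replicates disagree; tested in HMLE shEcad cells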;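 note: 0% = median of negative and 100% = median of positive control wells; the first replicate is given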
HIV Env fusion – inhibitors of HIV Env-mediated cell fusion; inhibition, % at 12.3 µM; HeLa-JRFL Env/CEM21 cell fusion, luciferase; actives 1.1% (n = 360,000);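 active = mean replicate inhibition score of at least 50 and every replicate individually at or above 50; inconclusive = only one of the two criteria met; inactive = mean below 50 and not all replicates reaching 50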;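 note: 0% = plate neutral controls and 100% = maraviroc near 300 nM; one replicate is shown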
eIF4H FP inh retest – second read-out of eIF4H FP inh, no call of its own (marks repeat the call); inhibition, %; compound at 20 µM; confirmation average;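 mean of two retest wells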
PABP FP inh retest – recorded beside PABP FP inh, whose call it bears; inhibition, %; compound at 20 µM; confirmation repeats;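 mean of two retest wells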
MT1-MMP act inh RFP – recorded beside MT1-MMP act inh, whose call it bears; RFP signal change, %; measured here: RFP expression control read;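 0 = vehicle wells; hits needed this value within 50% of zero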
* = called active by the depositor; i = inactive; ? = inconclusive; . = no result given.

SMILES	eIF4H FP inh	PABP FP inh	MT1-MMP act inh	MT1-MMP act inh RFP	Rce1 inh	Yeast UUG start	CSC inhib	HIV Env fusion	others
CC(C)c1ccc(NC(=O)COc2ccc(S(=O)(=O)N3CCOCC3)cc2)cc1	0	-4	-4	1	i	-5	-11	-4
CCOC(=O)C(NC(C)=O)C(OC(C)=O)c1cccc(N(CCO)CCO)c1 (stereo unspecified)	-2	-10	-1	6	i	-12	7	.
CCC(Oc1ccccc1)C(=O)Nc1nnc(C)s1 (stereo unspecified)	2	-6	-2	4	i	-12	.	17
O=C1CC(Nc2ccc3ccccc3c2)C(=O)N1Cc1ccccc1 (stereo unspecified)	-7	-1	-3	-6	i	.	13	41
COc1ccc(N(CC(=O)NCCC2=CCCCC2)S(=O)(=O)c2ccccc2)cc1OC	7	1	-4	-10	i	-13	-8	9
COc1ccc(CCC(=O)Nc2ccc(S(=O)(=O)NC3=NCCCCC3)cc2)cc1	.	.	0	1	.	-9	.	1
O=C(CSc1ncccn1)NC(=O)NCc1ccccc1	-4	-4	3	4	i	-15	-15	5
COc1ccc(CCN(C)C(=O)c2ccc(COc3ccccc3)o2)cc1OC	38	48	8	-1	i	-6	-10	-3
Cc1cc(C(=O)COC(=O)c2ccncc2)c(C)n1CCc1ccc(F)cc1	?	-10	-2	3	.	.	-8	2
CC(C)OC(=O)CSc1nnc(-c2cnccn2)n1C	-9	30	-3	1	i	.	-6	.
Cc1cc(C)c2nc(N3C(=O)C(O)=C(C(=O)c4ccco4)C3c3ccco3)sc2c1 (stereo unspecified)	66*	37	2	4	i	-14	13	15	eIF4H FP inh retest=84*;PABP FP inh retest=50
COc1ccccc1N1CCN(C(CNS(C)(=O)=O)c2cccnc2)CC1 (stereo unspecified)	2	-4	-1	3	i	-1	1	2
COc1cccc(C(=O)OCC(=O)c2c(N)n(C)c(=O)n(C)c2=O)c1	.	.	-5	-1	.	4	-13	.
O=S(=O)(c1ccccc1)C1Cc2ccccc2C1Cl (stereo unspecified)	.	.	1	4	i	-7	-19	2
Nc1nc(N)c2ncc(C(=O)CCc3ccccc3)nc2n1	?	?	-13	4	i	8	-6	7
Cc1ccc(C=C2C(=O)c3ccccc3C2=O)s1	2	-13	21	18	i	-9	0	6
COc1ccc(C(=O)NCC(=O)N2CCC(Cc3ccccc3)CC2)cc1OC	.	.	7	-2	.	-9	.	9
COc1ccc(S(=O)(=O)NCCc2ccccc2)cc1	1	-4	-8	-12	.	10	-5	-68
CN(C)C1=NCCN1CCCC1CCCCC1	.	.	3	1	.	-1	7	-3
CN1CCN(C(=S)c2ccc(N(C)C)cc2)CC1	-2	11	2	2	i	-2	5	.
COc1cccc(CN(C)C(=O)CCc2nnc(-c3ccsc3)o2)c1	-10	6	1	-1	i	.	11	-16
COc1ccccc1N1CCN(C(=O)c2c(-c3ccccc3)noc2C)CC1	-1	-1	-8	-13	i	-16	-2	.
Oc1ccc(-c2cn3c(n2)SCC3)cc1	-1	12	0	2	i	-23	.	.
Cc1ccc2c(c1)C1CC(C)(O2)N(c2cccc(C(=O)NCc3ccccn3)c2)C(=O)N1 (stereo unspecified)	-3	11	1	2	i	-10	-9	-7
OCCCN=c1cc(-c2ccccc2)oc2ccc(Cl)cc12	-5	15	-2	-2	i	.	12	.
Cc1cc(C)c(C#N)c(Nc2ccc(F)cc2)n1	-12	-2	-3	0	i	-9	-10	-34
CCOC(=O)c1cc(-c2ccccc2)sc1NC(=O)C(C)OC(=O)c1cccnc1Cl (stereo unspecified)	-2	-15	-5	-7	i	.	-8	-5
Cc1ccc(NCc2nnc(SCC(=O)O)n2Cc2ccccc2)cc1Cl	-10	-5	2	3	i	-18	7	16
COc1ccc(CS(=O)(=O)c2nc(C)cc(C)c2S(C)(=O)=O)cc1	-6	2	4	6	i	.	-9	-1
COc1ccccc1NC(=O)c1ccc([N+](=O)[O-])o1	.	.	.	.	i	.	15	2
O=C(Nc1ccc(Cl)c(Cl)c1)N1CC=C(c2ccccc2)CC1	4	7	-6	-7	i	-9	19	13
Cc1cc(C)c(C(=O)Nc2ccc3c(c2)OCCO3)c(C)c1	.	.	3	6	.	-8	.	-21
COc1ccc(Nc2nc(-c3ccc(OC)cc3)c(CCC(=O)O)s2)cc1	-3	-1	10	3	i	.	-2	10
O=C(Cc1cccc([N+](=O)[O-])c1)Nc1cccc(C(=O)N2CCCCC2)c1	.	.	6	-8	.	2	-3	6
CCOc1ccccc1NC(=O)c1ccc(NC(=O)c2ccco2)cc1	-8	8	5	-1	i	-12	-16	.
O=C(COC(=O)c1cccc(Cl)c1)Nc1ccc2[nH]c(=O)[nH]c2c1	.	.	3	3	i	.	.	11
CCOC(=O)c1cc(NC(=O)Nc2ccccc2Cl)c(C)nc1C	-6	-8	4	0	i	.	-10	-5
COCCNC(=O)C1(C)CCCN(C(=O)c2ccc3c(c2)OCO3)C1 (stereo unspecified)	.	.	6	7	.	-23	.	3
CC(C)N1CCN(C(=O)C2CCC(=O)N(CCc3cccc(F)c3)C2)CC1 (stereo unspecified)	-4	-2	1	0	i	1	.	.
COc1ccc(NC(=O)c2c(OC)cccc2OC)c(OC)c1	-7	-9	11	2	i	-9	-3	7
O=C(CNCc1ccc(Cl)cc1)Nc1cccc(C(=O)O)c1	3	5	4	5	.	.	.	-10
O=C(Nc1cccc(F)c1)N(Cc1ccc(Cl)cc1)CC(O)C(F)(F)F (stereo unspecified)	-10	1	1	-9	i	10	34	.
Cc1cc(C)nc(SCc2cc(=O)c(OC(=O)c3ccco3)co2)n1	11	6	5	6	i	.	4	.
COC(=O)C[C@H]1c2ccc(C(F)(F)F)cc2S(=O)(=O)N1Cc1ccccc1	.	.	1	-2	i	0	.	-18
Cc1cc(=S)[nH]c2ccccc12	-7	-8	0	3	i	-29	-10	.
CCC(C)N(C(=O)COC(=O)/C=C/c1ccc(O)c(OC)c1)C1CCS(=O)(=O)C1 (stereo unspecified)	-10	7	-1	1	i	.	-33	-63
CCOc1ccc(S(=O)(=O)NCc2ccc3c(c2)OCO3)cc1C(=O)O	1	-5	0	2	i	-6	-2	0
O=C(O)c1cc2c(s1)-c1ccccc1OC2	-3	2	3	7	i	-12	-16	.
CC1(C)CC(=O)C(Sc2ccccc2C(=O)O)=C(O)C1	0	4	4	8	i	.	-11	33
O=[N+]([O-])c1ccc(NS(=O)(=O)N2CCOCC2)cc1	.	.	1	1	.	-23	2	0
COC(=O)[C@]1(Cc2ccccc2)N[C@H](c2ccc(-c3ccc4c(c3)OCO4)cc2)[C@@H]2C(=O)N(C)C(=O)[C@@H]21	.	.	-3	-4	i	-20	-5	-14
COc1ccc2nc(C)c(C(N)=O)cc2c1	1	-4	-2	0	i	-20	.	-2
CC(=O)Nc1sc(N/N=C\c2cccc(Cl)c2)nc1-c1cccs1	2	-8	0	5	i	.	5	.
COc1ccc(Cl)cc1C(=O)OCC(=O)NC(=O)c1cccn1C	0	6	0	3	i	-10	-2	.
CCCCCc1ccc(C(=O)CCC(=O)OCC(=O)N(CC)c2c(N)n(Cc3ccccc3)c(=O)[nH]c2=O)cc1	.	.	2	0	.	-13	.	6
COc1cc2c(c(OC)c1OC)CCc1cnoc1-2	0	6	0	0	i	.	0	7
CCS(=O)(=O)c1nc(S(=O)(=O)c2ccc(C)cc2)c(NCCN2CCOCC2)s1	-7	1	0	1	i	-9	-13	1
CCOC(=O)C1=CN(Cc2ccco2)S(=O)(=O)NC1c1ccc(F)c(Cl)c1 (stereo unspecified)	.	.	-2	0	.	-2	.	5
CN(C)S(=O)(=O)c1ccc(N2CCCC2)c(C(=O)Nc2ccc(F)cc2F)c1	.	.	-2	-2	i	.	6	13
COc1ccc(C(=O)C2CCCN(C(=O)c3ccoc3C)C2)cc1F (stereo unspecified)	1	8	1	3	i	8	-8	-1

Brought forward from above: 2 compounds, followed by the next part.
SMILES	eIF4H FP inh	PABP FP inh	MT1-MMP act inh	MT1-MMP act inh RFP	Rce1 inh	Yeast UUG start	CSC inhib	HIV Env fusion	others
CN(C)S(=O)(=O)c1ccc(N2CCCC2)c(C(=O)Nc2ccc(F)cc2F)c1	.	.	-2	-2	i	.	6	13
COc1ccc(C(=O)C2CCCN(C(=O)c3ccoc3C)C2)cc1F (stereo unspecified)	1	8	1	3	i	8	-8	-1
O=C(Nc1cc(F)c(Br)cc1F)c1ccc(Cl)cc1	-12	15	0	-2	i	.	13	-81
Cc1cc2c3ccccc3[nH]c(=O)n2n1	.	.	-2	3	.	-13	.	5
O=C(NC(c1ccc(-c2ccccc2)cc1)c1cnccn1)C1CCN(CCOc2ccc(F)cc2)CC1 (stereo unspecified)	.	.	-1	-7	.	-3	.	-4
c1ccc(-c2ncnc3nc4n(c23)CCC4)cc1	7	6	-3	2	i	-15	-18	-40
COc1cccc(CN(C)C(=O)c2ccc(S(=O)(=O)N3CCCC3)cc2)c1OC	-1	-6	2	4	i	-4	-8	9
C/C(=N\Nc1cccc2cccnc12)c1ccc[nH]1	-7	12	-2	-1	i	-49	23	-157
Oc1cc(Cc2ccccc2)cnc1CN1CCCCC1	-1	-7	-7	-4	i	-8	-12	.
Cc1nccn1-c1ccc(C(F)(F)F)cc1[N+](=O)[O-]	8	13	1	-1	i	.	5	2
CN(C)S(=O)(=O)c1cccc(C(=O)OCC(=O)Nc2sccc2C(N)=O)c1	.	.	10	1	i	2	-14	?
Cc1ccc(NC(=O)c2c(C(F)(F)F)nn(C)c2SCc2cccc(C(F)(F)F)c2)cc1C	-15	3	-17	-25	i	-18	36	87*
COC(=O)c1ccc2ccn(CC(=O)NC3CCCCC3)c2c1	-8	-8	19	4	i	-19	8	-40
CCC(=O)N1CCCc2cc(S(=O)(=O)N3CCN(C4CCCCC4)CC3)ccc21	-3	-8	-1	-8	i	-7	13	3
O=C(NN=C1CCCC1)c1n[nH]c2c1CCC2	1	-2	1	-3	i	.	20	2
Cc1cccc(NC(=O)N2CCC(NC(=O)c3ccccc3C)CC2)c1	-11	1	2	8	i	-2	-2	28
CCSc1nnc(NC(=O)Cc2cc(OC)c(OC)c(OC)c2)s1	-1	-8	2	-5	i	.	-9	-8
Cc1c(C(=O)O)sc(S(=O)(=O)N2CCN(C(=O)Cc3ccccc3)CC2)c1C(=O)O	.	.	1	4	.	-14	.	2
Oc1c(Br)cc(Br)cc1C=Nc1ccc2c(c1)OCCO2	25	-1	-1	2	i	.	.	13
CC1(C(=O)NCc2cccs2)Cc2c(-c3cccc(C(F)(F)F)c3)ccnc2O1 (stereo unspecified)	.	.	1	-16	.	-3	.	-129
CC1(C)Cc2ccccc2-c2nnc(SCC(=O)Nc3nc4ccccc4s3)n21	-1	-4	9	-1	.	-5	-16	-38
COc1ccc(CCNC(=O)CSc2nnc(-c3ccc(F)cc3)o2)cc1OC	4	-1	-3	-2	i	-3	-3	.
Cc1ccc(NC(=O)c2cnn(-c3ccccc3)c2C)c(C)c1	-2	3	0	-7	i	-25	2	-34
C=CCOCCn1[nH]c2ccccc2c1=O	.	.	-2	2	.	-18	-20	-13
CCOC(=O)c1cc(NC(=O)Cc2ccc(S(=O)(=O)N3CCOCC3)s2)cc(C(=O)OCC)c1	.	.	0	-2	i	-6	12	3

Source: PubChem BioAssay
